# Sfp inh = inhibitors of Bacillus subtilis Sfp phosphopantetheinyl transferase; 3.5% of 310,000 active; Potency, µM, for inactives: max response, negative = inhibition, hits mostly inhibitors; AID 1490; Q9F4F7; Biochemical Sfp PPTase activity, qHTS; active = well fitted inhibition curve with a large enough effect; inconclusive = small, poorly fitted or top-dose-only effect, or another doubt; inactive = no such curve, though single readings can be large or run the other way;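 also: the enzyme is Sfp with the accession as filed and its product quenches rhodamine fluorescence; potency is read from the fitted curve at half-maximal effect; 0% = enzyme reaction without inhibitor and -100% = no enzyme wells; top concentration of the series not given in the record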
#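 Reaction rates are the 30-min fluorescence difference (ex 525, em 598 nm) in wells containing 15 nM Sfp, 5 uM rhodamine-CoA and 12.5 uM BHQ-2-YbbR at pH 7.6 with 10 mM MgCl2.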
# Menin-MLL FL inh = menin-MLL binding inhibition, fluorescein peptide; FP activity change, % at 61.4 µM; AID 1766; Fluorescence polarization, fluorescein-MLL peptide displacement from menin; 290,000 tested, under 10 active; inconclusive = falling polarisation curve, or a change in total fluorescence; inactive = total fluorescence flat and polarisation flat or rising; no compound was filed as active; the % refers to the polarisation; negative = inhibition;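 also: % of control where 0% means no effect; inhibitors lower the polarisation; unlabelled MLL peptide was the positive control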
# TRPV1 potentiator = enhances activation of the human vanilloid receptor TRPV1. Q8NER1. TRPV1-expressing cells, Fluo-8 calcium influx, capsaicin EC20 potentiation; host cell line not named in the record; control for the full effect not named in the record. potentiation, % at 8.33 µM. 0.02% of 320,000 active. AID 540277; active means potentiation above 80%; inconclusive means 30% to 80%; inactive means below 30%; also: 0% is about no effect
#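 Cells expressing TRPV1 were dye-loaded with Fluo-8 and read kinetically: 10 s baseline, 3 min after compound (agonist portion), then 2 min after EC20 capsaicin (allosteric enhancer portion). Calcium-bound dye fluorescence at 480/520 nm.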
# TRPML1 inh = blocks the human TRPML1 channel; Q9GZU1; 0.02% of 390,000 active; TRPML1-inducible cells, Ca2+ dye fluorescence, FDSS; hits give low values; inhibition of EC80 agonist-evoked calcium signal; activity change, negative = inhibition, % (no concentration beside the values); in the data active means activity change below about -50%; inconclusive means about -30% to -50%; inactive means above about -30%;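 also: stimulus is agonist 54-4 at its EC80 concentration; % is scaled to controls: 0 for no effect and ±100 for the full control effect; compound concentration not given in the record; the text of the record puts the active cut at -80%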
# Target sequence (Q9GZU1 whole entry, looked up): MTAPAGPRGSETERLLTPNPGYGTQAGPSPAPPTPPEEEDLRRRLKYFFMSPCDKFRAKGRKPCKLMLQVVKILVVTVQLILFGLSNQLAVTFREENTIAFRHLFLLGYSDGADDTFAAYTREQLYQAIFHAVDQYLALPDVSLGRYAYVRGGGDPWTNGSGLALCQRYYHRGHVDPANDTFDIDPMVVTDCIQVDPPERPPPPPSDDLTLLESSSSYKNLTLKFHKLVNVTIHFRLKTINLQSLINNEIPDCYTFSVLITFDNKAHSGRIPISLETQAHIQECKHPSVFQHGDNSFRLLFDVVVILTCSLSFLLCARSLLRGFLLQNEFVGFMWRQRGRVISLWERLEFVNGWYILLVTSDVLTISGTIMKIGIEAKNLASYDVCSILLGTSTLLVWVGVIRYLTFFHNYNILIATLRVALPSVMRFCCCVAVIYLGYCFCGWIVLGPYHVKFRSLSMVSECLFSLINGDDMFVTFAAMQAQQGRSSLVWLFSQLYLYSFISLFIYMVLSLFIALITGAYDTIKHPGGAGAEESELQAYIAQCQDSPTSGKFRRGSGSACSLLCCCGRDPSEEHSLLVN
#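 Calcium fluorescence in TRPML1-DL cells induced overnight with Tet: a 110 s read after compound pin addition, then a 110 s antagonist read after challenge with 54-4 at 4 uM final (EC80).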
# gsp antag = antagonists of gsp mutant (McCune-Albright syndrome). gsp-mutant cells, cAMP HTRF, 30 min; control for the full effect not named in the record. Potency, µM (doses to about 76.9 µM), inactives show at the top dose activity change, negative = inhibition, actives largely listed as inhibitors. 0.4% of 340,000 active; active = falling curve of any shape with a large fitted effect; inconclusive = falling curve, mostly with a smaller effect; inactive = flat or rising curve; cell line not stated here;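 also: intracellular cAMP measured with PDE inhibitor Ro 20-1724 present during compound exposure; potency is read from the fitted curve at half-maximal effect; % is scaled to controls: 0 for no effect and ±100 for the full control effect; nearly all actives have a fitted effect of over 65% in size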
#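 Measurement of cellular cAMP by homogeneous time-resolved fluorescence following a 30 min compound exposure at 37C. The PDE inhibitor […] was present throughout; the assay buffer was DPBS with 0.05% BSA and 0.005% Tween 20.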
# gsp ag = agonists of gsp mutant (McCune-Albright syndrome). gsp mutant cells, cAMP HTRF, 30 min; control for the full effect not named in the record. 0.13% of 340,000 active. Potency, µM (series often up to 76.9 µM), for the others: at the highest dose activation (cAMP increase), actives largely listed as activators. AID 624287; active = well fitted activation curve with a large enough effect; inconclusive = small, poorly fitted or top-dose-only effect, or another doubt; inactive = no such curve, though single readings can be large or run the other way; cell line not stated here;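 also: phosphodiesterase inhibitor Ro 20-1724 added with compounds to block cAMP breakdown; potency is read from the fitted curve at half-maximal effect; nearly all actives have a fitted effect of over 60% in size; about a fifth of the inactives were tested at one dose only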
#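 Cells stably selected in G418 were plated at 2000/well, grown 16-24 hr, then given compounds in DMSO with the PDE inhibitor […] (300 uM solution added) for 30 min at 37C; cAMP was read by HTRF.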
# ClpP mod = qHTS Assay for Activators of ClpP | purified B. subtilis ClpP, FRET peptide cleavage, 20 min | Potency, µM (titrated, usually from 57.5 µM), for inactives: top-dose activity change, negative = active | 1.9% of 340,000 active | AID 651965, 2013; active = well fitted falling curve with a large enough effect; inconclusive = small, poorly fitted or top-dose-only effect; inactive = no such curve, though single readings can be large or run the other way; also: potency is read from the fitted curve at half-maximal effect; the source files actives as falling curves though it sought activators and does not explain the sign; nearly all actives have a fitted effect of over 65% in size; many hits overshoot -100%
# Target sequence (P80244 whole entry, looked up): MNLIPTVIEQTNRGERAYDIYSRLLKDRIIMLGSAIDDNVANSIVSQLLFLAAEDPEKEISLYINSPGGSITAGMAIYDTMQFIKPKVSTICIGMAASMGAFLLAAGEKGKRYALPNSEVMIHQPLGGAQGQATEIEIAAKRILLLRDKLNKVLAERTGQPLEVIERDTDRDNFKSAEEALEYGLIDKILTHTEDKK
#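 Purified B. subtilis ClpP, 10 microg/mL final in Tris/HCl pH8 with KCl, BSA, glycerol and Tween-20, cleaved an Abz/nitrotyrosine-quenched decapeptide. Fluorescence (ex 320, em 430) was read at 0 and 20 min at room temperature. Delta was normalized to 5.8 microM ADEP and DMSO/no-enzyme controls.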
# Active calls of the source: *; ? = inconclusive; / = no result given; & = joins results of further samples; [ ] = another dose, or the depositor's remark.
SMILES,Sfp inh,Menin-MLL FL inh,TRPV1 potentiator,TRPML1 inh,gsp antag,gsp ag,ClpP mod
CCn1c(SCC(=O)NCc2ccc3c(c2)OCO3)nnc1-c1c[nH]c2ccccc12,15%,2.2,-4,-11,3%,25%,0.9%
CC(=O)N(\C=C/C=C/C=C1\Sc2ccccc2C1=O)c1ccccc1,-33%,?,2,8,-8%,-3%[15.4 µM],/
O=C(Nc1cccc(C(=O)O)c1)/C(=C/c1ccc([N+](=O)[O-])cc1)NC(=O)c1ccccc1,23%,2.8,0,-7,-1%,?,-0.4%
CCCc1ccc(-c2ccc(/C=C/C(=O)O)cc2)nc1,1%,3.3,27,15,-42%,-38%[inhibitor],?
CC(CC(=O)Nc1nc2ccccc2[nH]1)c1ccccc1 (stereo not given),3%,4.7,1,-16,-1%,0%,-0.5%
COc1cccc(NC(=O)Nc2ccc3c(c2)nnn3C)c1,13%,3.6,1,-6,1%,4%,-11%
NC(=O)c1cc2ccccc2o/c1=N\NC(=O)c1ccccc1O,-13%,-0.9,8,/,-10%,20%,-0.5%
COc1ccc(C(C)=O)cc1CON=C1CSCc2ccccc21,/,/,/,4,/,4%,-2.3%
CCN(CC)S(=O)(=O)c1ccc(C)c(NC(=O)CSc2nc3ccc(C)cc3[nH]2)c1,8%,2.5,-11,20,?,-21%,-3.7%
O=C(CNC(=S)N(CCCN1CCOCC1)Cc1cccs1)N1CCCCCC1,9%,-0.6,2,-8,-11%,-12%[15.4 µM],/
COC(=O)Cn1c(=NC(=O)CSCC(=O)Nc2cc(C)on2)sc2ccccc21,20%,-0.6,12,-11,-4%,-28%,-16%
CNC(=O)c1c(NC(=O)C2=COCCO2)sc2c1CCC(C)C2 (stereo not given),2%,/,-10,-18,?,-23%,?
O=C(Nc1ccccc1)c1cc2ccccc2s1,/,/,/,-4,-8%,10%,/
Cn1c(=N)n(CC(O)c2ccco2)c2ccccc21 (stereo not given),89µM*,4.7,23,2,3%,-16%,0.5%
Cc1cccc(NC(=O)c2nc[nH]c2C(=O)NCCCCNC(=O)c2[nH]cnc2C(=O)Nc2cccc(C)c2)c1,/,/,/,-5,-19%,-44%,-1.6%
O=C(Nc1ccon1)c1ccc(N2CCCCC2)c([N+](=O)[O-])c1,12%,-3.7,-27,-1,-7%,-24%,-0.5%
COCCCN1C(=O)C(O)=C(C(C)=O)C1c1ccccn1 (stereo not given),8%,0.6,2,-10,17%,?,-22%
CN(C)S(=O)(=O)c1cccc(NC(=O)c2ccc3nccnc3c2)c1,-16%,-0.4,-5,7,-2%,2%[15.4 µM],/
Cc1ccc(/C=C/C(=O)OC(C)C(=O)NC2CCCCC2C)o1 (stereo not given),/,/,-9,9,3%,18%,1.1%
N/C(=N\OC(=O)c1ccco1)c1ccccc1,11%,1.6,3,7,-7%,7%,0.6%
O=C(COC(=O)c1cc(F)cc(F)c1)NCCCc1ccccc1,2%,-8.0,?,/,14%,?,1.6%
c1ccc(CCSc2ncnc3nc[nH]c23)cc1,12%,-0.5,5,6,-8%,-62%[inhibitor],-3.0%
COc1cc(O)c(C(CCN2CCCC2)c2ccc3c(c2)OCO3)c(OC)c1 (stereo not given),-7%&-9%,8.3&1.9,?,19&37,20%,/,-0.2%
O=C(Nc1nnc(Cc2ccc(Cl)cc2)s1)C1CCCO1 (stereo not given),-27%,-3.7,12,-10,0%,-6%,/
CCCCNC(=O)CCC(=O)Nc1ccc2nc(N3CCN(C)CC3)cc(C)c2c1,3%,-7.0,3,-4,-7%,-18%,4.4%
CC(=O)N1CCc2cc(S(=O)(=O)CCC(=O)N3CCc4ccccc4C3)ccc21,-7%,1.2,-3,22,-8%,4%,-2.9%
Cc1ccc(NC(=O)CSc2ccc(C(N)=O)cc2[N+](=O)[O-])cc1C,12%,1.1,6,-7,/,-14%[15.4 µM],/
CC(C)C(=O)Nc1sc2c(c1-c1nc3ccccc3[nH]1)CCCC2,-4%,8.0,-10,-9,-12%,1%,119%
CCCc1cc(=O)oc2c(C)c(OCC(=O)NCc3ccccn3)ccc12,8%,0.2,3,18,-2%,-16%,3.6%
CSc1nc(-c2ccc(C)cc2)nc(C(Cl)Cl)n1,4%,5.3,/,0,15%,?,2.0%
Cc1c(C)n2c(SCC(=O)N3CCCCCC3)nnc2[nH]c1=O,/,/,1,-10,11%,0%[15.4 µM],/
COc1cc(/C=N/Nc2nc(Nc3ccccc3)nc(N3CCCCC3)n2)ccc1OCC(=O)O,-29%,1.3,-51,-6,-9%,24%,/
CCNc1sc(S(C)(=O)=O)nc1S(=O)(=O)c1ccc(Cl)cc1,1%,-1.9,6,51,-7%,13%,1.3%
C=CCSc1nc(C)cc(C(=O)OCC)c1C#N,0%,3.5,-6,4,-6%,7%[15.4 µM],-1.8%
CC(C)c1cccc(C(C)C)c1OC(=O)[C@H]1OC(c2ccc(Br)cc2)=C[C@@H]1c1ccc(Br)cc1,/,/,0,-3,5%,/,1.1%
Cc1ccc(-c2cc(C(=O)Nc3nn[nH]n3)c3ccccc3n2)cc1,-13%,-2.9,-5,2,8%,-1%,?
O=c1[nH][nH]c(C(F)(F)F)c1/C=N/N1CCOCC1,-7%,2.3,12,18,13%,2%,1.9%
Cc1cc(C)nc(N2CCN(c3ncnc4c3oc3ccccc34)CC2)n1,4%,1.3,-38,/,/,/,/
CCOCCCNCC(=O)NCC1CCCCC1,-23%,-11,-11,10,6%,23%,0.9%
O=C(OCC(=O)N1CCN(c2ccccc2)CC1)c1cccc([N+](=O)[O-])c1,/,/,8,-11,-2%,-2%[15.4 µM],1.6%
C=CCNc1ncnc2sc(SC)nc12,19%,0.8,17,-9,-4%,14%,-1.9%
Cc1cnc(C(=O)N(CC(C)C)c2c(N)n(CC(C)C)c(=O)[nH]c2=O)cn1,/,/,-1,-11,0%,-14%,0.9%
CCNC(=S)NNC(=O)c1ccccc1OC(F)F,-3%,-0.6,-8,6,3%,5%,4.3%
CCCOc1ccc(N/C=C/C(=O)c2cc(OC)c(OC)c(OC)c2)cc1,?,14,-8,/,-14%,-33%[inhibitor],0.2%
CC1(C)NC(=O)N(CC(=O)N2CCN(c3cccc(Cl)c3)CC2)C1=O,/,/,19,0,4%,?,1.4%
CC(=O)OCC1OC(COC(C)=O)(c2ccc(C)cc2)C(OC(C)=O)C1OC(C)=O (stereo not given),/,/,/,-2,0%,-5%,?
CN(C)c1ccc(NC(=O)c2ccc3c(c2)nnn3C)cc1,14%,1.0,-8,0,-10%,-8%,0.6%
Cc1cccc(-n2ccnc2SCC(=O)Nc2nccs2)c1C,18%,2.5,9,20,-14%,-34%[inhibitor],-12%
Cc1cc(C(=O)Cn2nnc3ccccc3c2=O)c(C)n1Cc1cccs1,5%,3.2,-4,10,?,6%,-5.0%
COc1cc(NC(=O)COC(=O)c2cc(S(=O)(=O)N3CCCCC3)ccc2Cl)c(C)cc1[N+](=O)[O-],-13%,2.7,?,8,-5%,19%,-2.5%
CC(=O)c1c(C)[nH]c(C(=O)NCc2ccccc2F)c1C,-10%,-4.5,1,40,-15%,-4%[15.4 µM],/
COc1ccc(CN2[C@@H](CC(C)=O)c3cc(C(F)(F)F)ccc3S2(=O)=O)cc1,/,/,/,-10,-10%,-1%,0.2%&4.5%
CSc1nc2ccc3nc(NC(=O)c4ccc(C)cc4)sc3c2s1,3%,0.6,27,-4,4%,5%,-26%
O=C(CN(Cc1ccc(F)cc1)C(=O)CCC(=O)Nc1ccccn1)NCCc1ccccc1,6%,0.1,26,-1,0%,-1%,/
Cc1ccc2nc(C)cc(C(=O)OCC(=O)Nc3c(C)n(C)n(-c4ccccc4)c3=O)c2c1,12%,0.1,7,19,-9%,4%[15.4 µM],/
CCN1CCN(C(C(=O)NC2CCCC2)c2cc3c(cc2[N+](=O)[O-])OCO3)CC1 (stereo not given),-18%,0.0,5,0,5%,-7%[15.4 µM],/
COC(=O)[C@]1(CC(C)C)N[C@H](c2ccc(-c3ccc(Cl)c(Cl)c3)cc2)[C@@H]2C(=O)N(C)C(=O)[C@@H]21,/,/,-105,-17,1%,10%,-7.8%
CC(C)Cc1csc(NC(=O)C(C)C)c1C(=O)O,7%,1.1,13,/,-20%,-19%,2.6%
CCOc1ccccc1C(=O)N1CCN=C1SCc1cccnc1,7%,-2.8,3,9,11%,-3%,-2.8%
CC(C)(C)Nc1nc(Cl)nc(NCc2ccccc2)n1,-10%,4.7,-7,-1,-5%,13%[15.4 µM],/

# (more compounds)
SMILES,Sfp inh,Menin-MLL FL inh,TRPV1 potentiator,TRPML1 inh,gsp antag,gsp ag,ClpP mod
CCCC1CC(C)(c2csc(Nc3ccc(OCC)cc3)n2)OC1=O (stereo not given),-1%,0.5,-7,26,?,-19%,-0.8%
CC1=C(C(=O)Nc2ccccc2)C(c2cccnc2)n2ncnc2N1 (stereo not given),15%,-1.8,-11,0,11%,-173%[inhibitor],-2.8%
COc1ccc(OC)c(NC(=O)CCOc2cccc(C)c2)c1,-6%,-5.0,-11,-11,-24%,-2%[15.4 µM],/
Cn1c2ccccc2n2c(=O)cc(-c3ccccc3)c(C#N)c12,-1%,2.0,1,-8,-27%,2%[15.4 µM],-17%
COc1ccc(N(CC(=O)NC2CCCC2)S(=O)(=O)c2ccc(NC(C)=O)cc2)cc1,8%,-1.6,10,-10,-12%,16%[15.4 µM],0.2%
COc1cc(OC)cc(-c2nc3ccccc3c(=O)n2OC(=O)c2ccccc2C)c1,17%,-1.9,-11,15,?,-21%[15.4 µM],/
Cc1ccc(C)c(OCC(=O)N(Cc2ccccc2)c2c(N)n(Cc3ccccc3)c(=O)[nH]c2=O)c1,/,/,/,?,-2%,-42%[inhibitor],-1.2%
CC(=O)Oc1ccc2c(c1)Oc1cc(OC(C)=O)ccc1C21OC(=O)c2ccccc21,?,?,12,-21,?,4%,-0.5%
CCN(CC)c1ccc(-n2nc3cc(C)c(NC(=O)c4ccccc4C)cc3n2)c(C)c1,/,/,8,13,/,/,4.6%

# Compound activity from PubChem.

# The order is random. Share with any hit: about 4.9%.
